Mtb bLac sens = beta-lactam sensitization of Mtb H37Rv. M. tuberculosis H37Rv growth with meropenem, percent inhibition; hits of this screen are not shown here. AID 434955. inhibition, % at 25 µM. hit rate 0.27% among 330,000;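 active = about 74% or more and at least 40 points above the plate without the antibiotic, then above 30% in a dose series; inconclusive = first-round hits that could not be retested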;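 also: growth measured after seven days incubation then overnight dye step; 0% = bacteria only wells and 100% = bacteria with antibiotic; twin plates without the antibiotic show which effects depend on it; some results filed as inactive read as strong as hits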
Active calls of the source: *; ? = inconclusive.

mol,Mtb bLac sens
C[C@H](CO)N1C[C@H](C)[C@H](CN(C)CC2CCCCC2)Oc2ccc(NS(=O)(=O)c3ccc(F)cc3)cc2CC1=O,1.2
COc1ccc(Cl)cc1NC(=O)CN1C(=O)NC(C)(Cc2ccc(OC)c(OC)c2)C1=O (stereo not drawn),0.4
O=C(CSc1nnc2ccccn12)NNC(=O)c1ccccc1F,-5.2
O=C(c1ccc(Cl)c([N+](=O)[O-])c1)N1CCN(S(=O)(=O)c2ccc(Cl)cc2)CC1,2.5
O=C(Nc1ccccc1)C1CCCN(C(=O)c2ccc(F)cc2)C1 (stereo not drawn),2.7
Cc1ccnc(SCc2ccc(C(=O)O)cc2)n1,-14.2
COCCn1c(N)c(N(Cc2ccccc2)C(=O)c2cc(=O)[nH]c3ccccc23)c(=O)[nH]c1=O,1.8
COc1cc(S(=O)(=O)NCC(c2ccco2)N2CCCCC2)ccc1NC(C)=O (stereo not drawn),-3.9
C[C@H](CO)N1C[C@H](C)[C@@H](CN(C)S(=O)(=O)c2cccs2)Oc2ccc(NC(=O)Cc3ccccc3)cc2C1=O,-7.7
CC(=O)c1c(C)[nH]c(C(=O)OCc2csc(CC(=O)Nc3ccccc3C)n2)c1C,-1.1
CCC(=O)OCC(=O)[C@@]1(OC(=O)CC)[C@@H](C)C[C@H]2[C@@H]3CCC4=CC(=O)C=C[C@]4(C)[C@@]3(Cl)[C@@H](O)C[C@@]21C,-10.6
COC(=O)C1=C(c2ccccc2OCc2ccccc2)C[C@@H]2CC[C@H]1N2C(=O)NCc1ccc(C(C)(C)C)cc1,-1.4
O=C(CN1C(=O)NC2(CCCCCCC2)C1=O)NCc1ccccc1,-1.1
CCOC(=O)c1c(C)[nH]c(C(=O)NNC(=O)c2ccccc2F)c1C,-0.5
C[C@]12c3[nH]c4ccccc4c3CCN1C(=O)C(CC(=O)NCc1cccc(C(F)(F)F)c1)C[C@@H]2C(=O)N1CCOCC1 (stereo partly drawn),-4.2
COC(=O)/C=C/c1ccccc1CN1[C@@H](CC(=O)OC)c2ccccc2S1(=O)=O,0.6
COc1ccc(S(=O)(=O)N2CCCCC2)cc1NC(=O)Cn1cnc2c1c(=O)n(C)c(=O)n2C,4.1
COC(=O)C1=C(c2ccc(OC)c(OC)c2)C[C@@H]2CC[C@H]1N2C(=O)NCCOc1ccc(OC)cc1,1.0
Cc1ccc(S(=O)(=O)N2CCCCC2)cc1NC(=O)C1CC(=O)N(Cc2ccco2)C1 (stereo not drawn),8.0
COc1ccccc1NS(=O)(=O)c1ccc(C)c(NC(=O)C2CCCO2)c1 (stereo not drawn),-1.3
CCC(CO)Oc1cc(NC(=O)c2ccc(Cl)cc2)c2ncn(C(C)C)c2c1 (stereo not drawn),6.0
CN(C(=O)Cn1cc([N+](=O)[O-])ccc1=O)C1CCCCC1,-3.6
O=c1c2ccccc2[nH]c(=S)n1Cc1ccccc1,-2.9
O=C(Nc1cc(C2CC2)nn1-c1ccccc1)c1ccc(F)cc1,8.1
COc1ccc(C)cc1NC(=O)CN1c2cccc3cccc(c23)S1(=O)=O,-0.5
CC(OC(=O)Cc1c[nH]c2ccccc12)C(=O)NC1(C#N)CCCCC1 (stereo not drawn),-1.6
CCN(C(=O)COC(=O)Cc1coc2cc(C)ccc12)c1c(N)n(Cc2ccccc2)c(=O)[nH]c1=O,-1.6
CCCCOc1ccc(C(=O)OCC(=O)N2CCCCCC2)cc1,8.8
CC(Sc1ccc(Cl)cc1)C(=O)NNC(=O)c1ccco1 (stereo not drawn),-1.1
CN(CC(=O)N(C)CC(=O)Nc1c(Cl)cccc1Cl)Cc1ccc(Br)s1,2.4
N#C[C@H](O[C@@H]1O[C@H](CO[C@@H]2O[C@H](CO)[C@@H](O)[C@H](O)[C@H]2O)[C@@H](O)[C@H](O)[C@H]1O)c1ccccc1,-4.9
Cc1ccc(Cl)cc1C1=CC(=O)C[C@H](c2ccc(F)cc2)C1,1.3
CC(OC(=O)c1cccc(S(=O)(=O)N2CCN(C)CC2)c1)C(=O)Nc1ccc(C(N)=O)cc1 (stereo not drawn),-7.7
COc1ccc(Cl)cc1NC(=O)COC(=O)c1ccc(Cl)nc1,2.7
O=C(/C=C/c1ccco1)OCC(=O)c1ccc(OC(F)F)cc1,54.3
Cc1cccc(C)c1NC(=O)CN1CCN(C(=O)CNC(=O)c2ccc(N3CCCC3=O)cc2)CC1,-1.4
N#Cc1ccc(-c2ccc(C3Nc4ccccc4C(=O)N3O)o2)cc1 (stereo not drawn),2.5
COc1ccccc1S(=O)(=O)NCc1ccc(C(=O)N(C)Cc2ccc(F)cc2)cc1,-6.2
COc1ccc(CCNC(=O)c2cc(C3CC3)nc3c2cnn3C(C)C)cc1,-1.7
Cn1c(CC(=O)NNC(=O)c2ccccc2[N+](=O)[O-])nc2ccccc21,-4.3
COc1ccc(CCC(=O)OCc2csc(CC(=O)Nc3ccc(C)cc3)n2)cc1OC,1.0
COc1ccc2[nH]c(C)c(CCNCc3cn(C)c4ccccc34)c2c1,2.3
CCCCN1C(=O)c2ccc(C(=O)OCC(=O)NCCc3ccc(S(N)(=O)=O)cc3)cc2C1=O,2.0
CC1CCc2sc(C(=O)NC3CCN(Cc4ccccc4)CC3)cc2C1 (stereo not drawn),-1.4
O=C(O)c1ccccc1NC(=O)C(c1ccccc1)c1ccccc1,-1.5
CCCCn1nc(C(=O)Nc2cccc(C(=O)NC3CC3)c2)c2ccccc2c1=O,1.9
C[C@]12CCC3C(CC[C@H]4C[C@@H](O)CC[C@]34C)C1CCC2=O (stereo partly drawn),-2.0
COc1ccc([C@H]2CC(=O)C=C(c3ccc(C)c(F)c3)C2)cc1,-0.5
CCc1ccccc1NC(=O)CNC(=O)c1cc(C2CC2)nn1-c1ccccc1,100.0
COc1cccc(CNC(=O)COC(=O)/C(C#N)=C/c2ccc(N(C)C)cc2)c1,4.8

The closing 7 entries of the section above come first, to join the parts:
Molecule,Mtb bLac sens
CC1CCc2sc(C(=O)NC3CCN(Cc4ccccc4)CC3)cc2C1 (stereo not drawn),-1.4
O=C(O)c1ccccc1NC(=O)C(c1ccccc1)c1ccccc1,-1.5
CCCCn1nc(C(=O)Nc2cccc(C(=O)NC3CC3)c2)c2ccccc2c1=O,1.9
C[C@]12CCC3C(CC[C@H]4C[C@@H](O)CC[C@]34C)C1CCC2=O (stereo partly drawn),-2.0
COc1ccc([C@H]2CC(=O)C=C(c3ccc(C)c(F)c3)C2)cc1,-0.5
CCc1ccccc1NC(=O)CNC(=O)c1cc(C2CC2)nn1-c1ccccc1,100.0
COc1cccc(CNC(=O)COC(=O)/C(C#N)=C/c2ccc(N(C)C)cc2)c1,4.8
CCOC(=O)[C@H]1[C@H]2COc3ccc(Cl)cc3[C@@H]2N2C(=O)c3cc(OC)ccc3NC(=O)[C@@]12C,62.7
CCC1CCCCN1C(=O)COC(=O)c1cc(C)nc2ccccc12 (stereo not drawn),-0.6
Cc1ccccc1OCCC(=O)Nc1ccccc1C(=O)N1CCCCC1,-1.5
CC(C)(C)[C@H]1COC(=O)[C@H](Cc2ccc(F)cc2)CC/C=C/C[C@@H](CC(=O)N[C@H](CO)Cc2ccccc2)C(=O)N1,-2.5
CC(=O)c1ccc(S(=O)(=O)N2CCN(CCOc3ccc(Br)cc3)CC2)cc1,59.6
CCN(CC(=O)Nc1ccc(OC)cc1)C(=O)CCc1nc2ccccc2c(=O)[nH]1,-8.7
CN(C)CCNc1oc(-c2ccccc2Cl)nc1S(=O)(=O)c1ccccc1,3.3
CCN(CC(=O)Nc1ccc(NC(C)=O)cc1)C(=O)/C=C/c1ccc(C)o1,0.7
CCc1ccc(CNC(=O)c2ccc3nc(C4CCCCC4)oc3c2)nc1,?
C[C@H](NC(=O)c1nc[nH]c1C(=O)N1CCN(C(=O)OC(C)(C)C)CC1)C(=O)OC(C)(C)C,-7.7
COC(=O)C1CCN(CC(=O)Nc2ccc(C(=O)Nc3ccccc3OC)cc2)CC1,-3.8
CCN(C(=O)COC(=O)C1CC1)c1c(N)n(Cc2ccccc2)c(=O)[nH]c1=O,-1.4
COc1cccc(C(=O)OC(C)C(=O)NCC2CCCCC2)c1 (stereo not drawn),-1.3
Cc1sc2nc(CN(CCc3ccccc3)C(=O)c3ccco3)[nH]c(=O)c2c1C,0.1
O=C(CCNC(=O)c1ccc(Br)cc1)Nc1ccc(S(=O)(=O)N2CCOCC2)cc1,3.1
O=C(CNS(=O)(=O)c1ccccc1F)OCC(=O)c1c[nH]c2ccccc12,-5.4
O=C(CSc1nnc(-c2ccncc2)n1-c1ccccc1)NCC1CCCO1 (stereo not drawn),-5.4
CC(=O)Nc1ccc(NC(=O)c2c([N+](=O)[O-])cnn2C)cc1,-1.1
CCOc1ccc(NC(=O)CN(C)C(=O)c2ccc(C3SCCS3)cc2)cc1OCC,1.1
CCOC(=O)C1CCN(C(=O)CN(c2cc(Cl)ccc2OC)S(=O)(=O)c2ccccc2)CC1,?
Cc1cc(N(C)C(=O)c2ccc3c(c2)S(=O)(=O)c2cc(Cl)ccc2C3=O)c(C(F)(F)F)o1,4.1
CCCn1c(SCC(=O)N2CCc3ccccc3C2)nc(O)cc1=O,1.1
Cc1cc(NC(=O)CCN2CCN(C)CC2)ccc1Br,3.6
CCOC(=O)c1c(C)[nH]c(C)c1C(=O)COC(=O)Cc1ccc(OC)c(OC)c1,-5.3
CCc1noc(C)c1C(=O)NNC(=O)COc1cc(C)ccc1C,-2.6
Nc1c(C(=O)CSc2nnc(Cc3ccccc3)o2)c(=O)[nH]c(=O)n1C1CC1,-0.9
CN(CC(=O)Nc1cccc(F)c1)C(=O)c1ccc(OCc2cn3ccccc3n2)cc1,-10.7
Cc1ccc(S(C)(=O)=O)cc1C(=O)Nc1ccc(S(=O)(=O)Nc2nccs2)cc1,0.5
COc1ccccc1C(=O)NC(CCSC)C(=O)N1CCN(C(C)=O)CC1 (stereo not drawn),-3.5
CC(=O)Nc1nnc(SCC(=O)NC2CC2)s1,0.7
C[C@H](CO)N1C[C@H](C)[C@@H](CN(C)Cc2ccc(Cl)c(Cl)c2)Oc2c(NC(=O)C3CCOCC3)cccc2C1=O,-2.8
Cc1ccc(S(=O)(=O)N2CCN(C(=O)n3ccnc3)CC2)cc1,-4.6
COc1ccc(C2=NOC(Cn3nc(-c4ccccc4)cc3C(=O)NCc3cccc(Br)c3)C2)cc1 (stereo not drawn),2.5
COCCn1c(N)c(C(=O)c2cccc(S(=O)(=O)N3CCCCCC3)c2)c(=O)[nH]c1=O,-9.2
CC(C)CN(C(=O)CN1C(=O)NC(c2ccccc2)(c2ccccc2)C1=O)C1CCS(=O)(=O)C1 (stereo not drawn),-8.7
O=c1c2cc(F)ccc2sn1-c1ccc(F)cc1,52.9
Cc1ccc(S(=O)(=O)NCCC(=O)NC2CCCCC2)cc1,-2.5
O=C(CCc1nc2sc3c(c2c(=O)[nH]1)CCCC3)N1CCN(c2ccccc2)CC1,-4.5
O=C(COC(=O)/C=C/c1cccc(F)c1)NC(=O)NC1CCCC1,16.9
O=C(COc1ccccc1)NNC(=O)c1ccc(Cl)cc1,2.0
CC(C)(C)[C@@H]1COC(=O)[C@H](Cc2ccc(F)cc2)C/C=C\C[C@@H](CC(=O)NCCO)C(=O)N1,-11.1
O=C(CNC(=O)c1ccc2c(c1)OCO2)Nc1cccc(Br)c1,-7.5
CCN(CC(=O)NC(C)C)C(=O)c1cc(S(=O)(=O)N2CCCCC2)ccc1N1CCCCC1,1.1
O=C(COc1ccccc1F)NCC(c1ccc(F)cc1)N1CCOCC1 (stereo not drawn),-8.9
O=C(CN1C(=O)NC(c2ccccc2)(c2ccccc2)C1=O)NCc1ccco1,-0.7
O=C(COC(=O)C1CCC1)Nc1ccc(Cl)cn1,-2.2
Cc1cc(NC(=O)COC(=O)C2CC2)ccc1Br,52.6
Cc1c(NC(=O)CSc2ncnc3c2cnn3-c2ccccc2)c(=O)n(-c2ccccc2)n1C,1.6
CN(CC(=O)Nc1cc(Cl)ccc1Cl)C1CCS(=O)(=O)C1 (stereo not drawn),2.6
COc1ccc(NC(=O)c2ccc(S(=O)(=O)N3CC(C)OC(C)C3)cc2)cc1 (stereo not drawn),-10.1

The results go on.
Molecule,Mtb bLac sens
C[C@H](NC(=O)c1nc[nH]c1C(=O)N[C@@H](CCCCN)C(=O)OC(C)(C)C)C(=O)OCc1ccccc1,-4.7
O=C(Cc1ccccc1Cl)NCc1cccnc1,0.6
COC(=O)c1ccc(CN=C(NS(=O)(=O)c2ccccc2)c2ccccc2)cc1,-3.8
O=C(Cn1ccc(NC(=O)OCc2ccccc2)nc1=O)NCc1nc2ccccc2[nH]1,-5.7
O=C(COC(=O)C1CC(=O)N(CCc2ccccc2)C1)c1ccc[nH]1 (stereo not drawn),8.4
CCN1C(=NCCOC)N[C@@H](c2cccc(C(F)(F)F)c2)C(C(=O)OC)=C1C,-3.0
O=C(COC(=O)/C=C/c1ccc(F)cc1)NC1CCCCCC1,27.0
CCn1c(C)cc(C(=O)CSc2nnc(-c3ccco3)o2)c1C,1.7
COc1cc2cnc(CCCC#N)cc2cc1OC,-6.3
CCCCn1c(N)c(N(CCC(C)C)C(=O)COC(=O)/C=C/c2ccc(F)cc2)c(=O)[nH]c1=O,-9.7
CC(C)(C)OC(=O)C[C@@H]1C/C=C\C[C@H](CC(=O)N(CCO)Cc2ccccc2)C(=O)N[C@@H](Cc2ccccc2)COC1=O,-2.1
Cc1cccc(S(=O)(=O)Nc2ccc(S(=O)(=O)Nc3nccs3)cc2)c1,-7.2
COCc1nnc(NC(=O)CCS(=O)(=O)c2ccccc2)s1,19.6
COc1cccc(CNC(=O)Cn2ccc([N+](=O)[O-])n2)c1,5.4

Source: PubChem BioAssay

The list is partial, so the mix of outcomes need not match the whole.
